From PubChem BioAssay
FGF22 binding: shifts melting point of recombinant human FGF22 | recombinant FGF22 thermal shift, SYPRO orange fluorescence; percent of sucrose octasulfate shift, DMSO zero | calls only at 9.99 µM | actives 1.5% (n = 340,000) | AID 651658;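 active = melting point raised past a set limit in the mean and every replicate; inconclusive = no clear call; three in four hits are not shown here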
UCH37 inh: human UCH37 deubiquitinating enzyme inhibition | Q9Y5K5 | purified proteasome/UCH37, Ub-AMC cleavage fluorescence | inhibition, % (no concentration beside the values) | actives 0.33% (n = 330,000);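 active = mean of two replicates above 20%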;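 also: 0% = compound-free wells with enzyme and 100% = wells lacking proteasome; stock transfer was 100 nL into about 20 µL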
Target sequence (Q9Y5K5 whole entry, looked up): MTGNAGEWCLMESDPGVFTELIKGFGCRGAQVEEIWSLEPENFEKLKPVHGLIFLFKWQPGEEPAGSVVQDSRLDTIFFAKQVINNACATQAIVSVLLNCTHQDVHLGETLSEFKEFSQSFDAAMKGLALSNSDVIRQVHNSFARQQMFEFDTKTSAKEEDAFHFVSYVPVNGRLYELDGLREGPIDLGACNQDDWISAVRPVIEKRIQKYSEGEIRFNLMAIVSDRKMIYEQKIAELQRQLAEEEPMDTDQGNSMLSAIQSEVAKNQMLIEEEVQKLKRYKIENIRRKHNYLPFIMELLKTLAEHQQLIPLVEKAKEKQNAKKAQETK
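Test system – human UCH37 enzyme supplied as purified proteasome complex · Incubation – 30 min preincubation with enzyme, 25 min cleavage at room temperature · Detection – AMC fluorescence from Ub-AMC cleavage, excitation 355 nm, emission 460 nm · Benchmarks – no-proteasome wells (full inhibition) and compound-free wells (no inhibition)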
RanGTP-Imp inh: disruptors of Ran-importin-beta complex formation – biochemical, FRET, CFP-Ran, YFP-importin-beta, homogeneous, primary screen | inhibition, % (test concentration not listed) | actives 1.1% (n = 300,000) | cell-free CFP-Ran/YFP-importin-beta FRET ratio;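 active = most replicates above 15%; inconclusive = exactly half above 15%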;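 also: 0% = DMSO wells and 100% = Ran loaded with GDP instead of GTP; wells of about 40 µL received 100 nL stock; the first replicate is given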
AF4-AF9 inh: inhibitors of human MLL-AF4/AF9 interaction. P42568. AlphaScreen, biotin-AF4 peptide binding to FLAG-AF9. inhibition, % at 10 µM. actives 0.47% (n = 350,000);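 active = every replicate reaching a set inhibition limit, whatever the replicate mean, cut at about 25% in these data; inconclusive = mean inhibition reaches that limit but some replicates miss it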;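 also: 0% = plate neutral control median and 100% = total signal loss; the record names both 10 and 1 µM as test concentration; the first replicate is given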
Target sequence (P42568 whole entry, looked up): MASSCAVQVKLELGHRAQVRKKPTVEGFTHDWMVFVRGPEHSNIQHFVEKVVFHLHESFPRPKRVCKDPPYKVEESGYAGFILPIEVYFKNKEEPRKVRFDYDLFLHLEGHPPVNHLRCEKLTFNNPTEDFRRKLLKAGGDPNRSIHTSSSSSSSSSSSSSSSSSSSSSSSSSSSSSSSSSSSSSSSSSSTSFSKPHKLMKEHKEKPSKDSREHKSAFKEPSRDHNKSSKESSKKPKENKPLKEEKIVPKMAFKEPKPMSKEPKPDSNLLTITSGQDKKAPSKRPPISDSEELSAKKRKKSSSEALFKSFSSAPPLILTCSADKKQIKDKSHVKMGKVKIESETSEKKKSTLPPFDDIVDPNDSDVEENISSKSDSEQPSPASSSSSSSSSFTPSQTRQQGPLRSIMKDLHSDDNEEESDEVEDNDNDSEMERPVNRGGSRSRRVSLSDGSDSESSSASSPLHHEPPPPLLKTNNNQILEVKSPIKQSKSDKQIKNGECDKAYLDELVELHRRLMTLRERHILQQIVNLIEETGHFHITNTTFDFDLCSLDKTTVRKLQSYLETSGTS
Vif TR-FRET: inhibitors of Vif binding to APOBEC3G peptide, primary screen, biochemical, TR-FRET, GST-Vif 1-94, biotin-A3G peptide, dose response retest (AID 1117319); inhibition, %, or IC50 in µM where a hit was titrated; actives 0.57% (n = 260,000); TR-FRET GST-Vif / biotin-A3G peptide binding; higher % means a stronger effect; test concentration not given here; strong numbers were not always called active;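 active = above the screen mean plus three standard deviations and confirmed in dose response; inconclusive = results disagree or hit not tested in dose response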;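 also: Vif residues 1-94 fused to GST binding biotinylated APOBEC3G peptide 110-148; 0% = full assay without inhibitor and 100% = GST in place of GST-Vif; retest series ran down from 100 µM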
Ecoli growth: E. coli growth inhibition; actives 0.21% (n = 330,000); OD600 absorbance (no concentration beside the values); Escherichia coli growth, OD600, 23 h; active compounds read low; AID 1053175;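 active = OD600 absorbance below the run mean of sample wells minus 3.6 SD, in any replicate, cut at about 0.56 in these data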;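 also: stock transfer was 300 nL into about 60 µL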
HNF4A DNA FP: change in binding of human HNF4 alpha to DNA; P41235; HNF4a-FITC DNA binding, fluorescence polarization, 1 h; activity change, % at 10 µM; actives 0.3% (n = 360,000); in the data active = activity change above about 30%, passing the limit was not always enough;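 also: controls were the assay level and a saturating level of protein; the project sought stronger binding though the title names inhibitors; some compounds called inactive have numbers as strong as hits; positive values seem to mean higher polarization but the record does not say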
* = called active by the depositor; i = inactive; u = inconclusive; x = no result given; + = active, no number.

SMILES	FGF22 binding	UCH37 inh	RanGTP-Imp inh	AF4-AF9 inh	Vif TR-FRET	Ecoli growth	HNF4A DNA FP
CCOC(=O)c1csc(NC(=O)c2ccc(C#N)cc2)n1	i	4.9	-5.4	-2.5	-4%	0.71	-2.9
CCOC(=O)c1cc(C)n(-c2ccc(Cl)cc2)c1C	i	-1.8	-5.4	0.4	-7%	0.64	0.5
Cc1ccc(-c2nc(-c3cccnc3)sc2CC(=O)O)cc1	i	-3.3	2.2	-7.7	u	0.72	5.1
N/C(=N\OC(=O)CCCc1ccccc1)c1ccc([N+](=O)[O-])cc1	x	x	0.2	x	0%	x	0.4
O=C(NNC1=NCCC1)c1ccc(Br)cc1	x	3.3	-0.1	x	4%	0.73	0.1
Cc1ccc(C)c(NC(=O)C2CC(O)CN2C(=O)OC(C)(C)C)c1 (stereo not given)	x	-4.5	-0.2	x	29%	0.72	0.0
CCn1cc([N+](=O)[O-])c(C(=O)Nc2ccc3c(c2)OCCO3)n1	x	4.1	-1.7	x	22%	0.68	-5.5
COc1cccc(S(=O)(=O)NCc2ccc3c(c2)OCO3)c1	i	6.4	2.0	3.2	0%	0.71	-1.4
O=C(NCC(c1ccco1)N1CCCCC1)c1ccc([N+](=O)[O-])s1 (stereo not given)	i	4.8	x	1.2	x	0.66	-1.1
CC(=O)N1CCN(C(C)=O)C1c1ccccc1	x	3.4	4.5	x	2%	0.65	0.3
CCCCCc1nnc(NC(=O)c2ccc(=O)n(C)n2)s1	i	3.7	-1.3	0.3	4%	0.69	2.6
CCCN(CCC)S(=O)(=O)c1cc2c3c(c1)CCN3C(=O)CC2	i	-0.1	u	-0.5	2%	0.66	0.7
CCc1nnc(NC(=O)CSc2nnc(-c3ccoc3C)n2-c2cccc(C)c2)s1	x	1.1	0.0	x	-3%	0.72	-0.8
O=C(Nc1ccc(Br)cn1)c1ccc(Br)s1	i	1.5	0.7	-1.2	-28%	0.69	2.9
CC(NC(=O)CNC(=O)c1cccs1)c1cccc(C(F)(F)F)c1 (stereo not given)	i	3.3	x	-2.1	x	0.71	3.4
COc1ccc(Cl)cc1-c1nc(SCC(N)=O)n[nH]1	i	0.4	-0.6	-14	-20%	0.64	2.0
COc1ccc(-c2nc3ccccc3c(=O)n2CCCN2CCOCC2)cc1	i	1.7	1.8	2.1	-2%	0.72	7.1
OC(COc1ccc2cc(Br)ccc2c1)CN1CCN(c2ccccn2)CC1 (stereo not given)	x	5.6	1.2	x	-10%	0.7	-1.4
Cc1ccc(-n2ncc3c(=O)[nH]c(SCC(=O)N4CCCC4)nc32)cc1C	i	5.6	1.0	-2.5	x	0.76	1.6
COc1cccc(-c2nc(CS(=O)(=O)CC(=O)Nc3cc(C)ccc3C)c(C)o2)c1	i	1.7	6.5	-11	-12%	0.76	-0.2
Cc1cc(SCc2cccc([N+](=O)[O-])c2)nc(=O)[nH]1	i	3.5	5.8	2.5	x	0.71	-1.0
COc1ccc(C(C(=O)NCC2CCCO2)N(C(=O)CNC(=O)c2cccs2)c2ccc(C)cc2)cc1OC (stereo not given)	i	1.1	-5.6	-1.3	25%	0.68	0.7
O=C(Nc1ccc(OCc2ccccc2)cc1)c1ccccc1	i	-3.6	-1.4	-2.0	3%	0.73	2.8
Cc1ccc(CNC(=O)CCC2CCCN(Cc3cccc4cccnc34)C2)o1 (stereo not given)	i	2.5	4.1	4.7	13%	0.71	1.9
COc1ccc(NC(=O)COC(=O)c2ccc3c(c2)OCCO3)cc1OC	i	0.9	x	-13	-5%	0.68	-1.9

Next section.
SMILES	FGF22 binding	UCH37 inh	RanGTP-Imp inh	AF4-AF9 inh	Vif TR-FRET	Ecoli growth	HNF4A DNA FP
O=C(NCCc1ccccn1)C(F)(F)C(F)(F)C(F)(F)C(F)(F)C(F)(F)C(F)F	x	1.8	1.4	x	3%	0.7	1.2
Cc1n[nH]c(C)c1CCC(=O)N/N=C/C=C/c1ccccc1	i	x	-3.6	0.5	7%	x	1.7
CNC(=O)NC(=S)NC(=O)c1ccccc1Cl	i	4.7	-1.6	-1.4	-2%	0.72	2.1
CC(C)[C@H](NS(=O)(=O)c1ccccc1)C(=O)OCC(=O)NC1CCCCC1	i	4.2	x	1.0	x	0.7	-0.3
C=CCC1(C(=O)NCCO)CCN(C(=O)OC(C)(C)C)CC1	i	1.5	u	-5.2	x	0.69	-0.5
CN(C)S(=O)(=O)NCC1CCCN(Cc2cc3ccccc3s2)C1 (stereo not given)	i	x	-2.3	-1.2	8%	x	-4.7
CCOC(=O)c1nc2sc3c(c2c(=O)[nH]1)CCCC3	x	-194	2.1	x	u	0.7	-0.9
CCN1C(=O)CSc2ccc(C(=O)NCc3ccccc3OC)cc21	i	4.9	-2.0	5.3	u	0.65	-4.5
Fc1ccc(CNC(=S)NCc2cccc(Cl)c2)cc1	i	3.5	-1.9	-16	2%	0.58	1.1
Cc1ccc(N2CCN(c3ccc([N+](=O)[O-])cn3)CC2)c(C)c1	i	2.6	-2.6	8.7	-3%	0.67	-0.2
CC1CCN(Cc2c(C(=O)N3CCc4ccccc4C3)nc3ccc(Cl)cn23)CC1	i	2.5	2.4	2.9	4%	0.7	1.3
Nc1nc(Nc2ccccc2)nc(N2CCOCC2)c1[N+](=O)[O-]	x	7.7	-1.5	x	9%	0.66	-0.3
CCc1nc2c(OCc3cc(Cl)cc(Cl)c3)cccn2c1N(C)C(=O)c1ccccc1F	i	x	x	6.2	x	x	-1.5
CC(C)CC(NC(=O)OC(C)(C)C)C(=O)NCc1ccccc1 (stereo not given)	x	-0.4	-2.5	x	2%	0.75	0.8
CC(C)(C)C1(O)CC(C(F)(F)F)=NN1C(=O)Cc1ccc([N+](=O)[O-])cc1 (stereo not given)	i	3.6	2.7	0.8	-1%	0.69	-2.9
COc1cc(C(=O)NCCOc2cc(C)ccc2C(C)C)cc(OC)c1OC	i	2.6	u	-3.4	3%	0.69	1.4
CCN1CCC(N2CCN(c3ccc(F)cc3)CC2)CC1	i	3.6	-2.1	0.1	x	0.64	-1.1
Cc1cnc(C(=O)OCc2csc(CC(=O)Nc3ccccc3C)n2)cn1	i	-0.5	3.4	-2.0	x	0.7	4.6
CC(C)(O)C1CC[C@@](C)([C@@H]2CC[C@]3(C)[C@H]2[C@H](O)CC2[C@@]4(C)CCC(O)C(C)(C)C4C(OC4OC(CO)C(O)C(O)C4O[C@@H]4OCC(O)C(O)C4O)C[C@]23C)O1 (stereo not given in full)	i	-0.1	x	-1.2	x	x	0.7
CCOC(=O)[C@]12CCC=C1N(Cc1ccccc1)C(=O)[C@H](CC(=O)NCc1ccc(OC)c(OC)c1)C2	i	x	x	-6.9	x	x	-4.5
O=C(NCCN1CCOCC1)c1cccs1	x	-6.5	-4.7	x	5%	0.74	-1.1
C=CCOC(=O)C1=C[C@H](c2ccc(C(F)(F)F)cc2)C[C@H](OCCCCO)O1	i	2.1	-3.0	x	x	x	0.7
C=CCc1cccc(C2Nc3ccccc3C(=O)N2O)c1O (stereo not given)	x	1.2	-1.2	x	1%	0.66	-1.5
COC(=O)c1cc(OC)c(OC)cc1NC(=O)c1cnccn1	x	1.3	-0.3	x	-5%	0.65	x
C=CCn1nc(-c2ccccc2)c2c(C)onc2c1=O	i	0.1	-0.3	-1.2	16%	0.59	-5.4

Further compounds
SMILES	FGF22 binding	UCH37 inh	RanGTP-Imp inh	AF4-AF9 inh	Vif TR-FRET	Ecoli growth	HNF4A DNA FP
COc1cc(/C=N/NC(=S)Nc2cccnc2)cc(OC)c1O	i	x	0.4	-1.9	u	x	1.4
CC(=O)c1cc(C(=O)N2CCCC(CCC(=O)N(C)CCc3ccccn3)C2)cs1 (stereo not given)	i	4.0	-5.0	-0.7	0%	0.71	3.6
Cc1cc(=O)n2nc(-c3ccc(C(F)(F)F)cc3)sc2n1	x	3.7	-1.8	x	1%	0.74	2.1
O=C(Nc1ccc(Cl)c([N+](=O)[O-])c1)c1ccc2c(c1)OCCO2	i	0.6	3.9	-3.1	7%	0.69	-4.2
COc1ccc(CNC(=O)CCn2c(=O)c3cccn3c3ccc(F)cc32)cc1	i	-3.0	3.3	0.8	-5%	0.67	-0.1
CC(C)c1ccc(NC2CCCN(C(=O)CCN3Cc4ccccc4C3=O)C2)cc1 (stereo not given)	i	-0.3	3.1	4.2	-4%	0.63	-3.7
O=C(O)c1ccccc1N/N=C/c1c(Sc2nnnn2-c2ccccc2)nc2ccccn2c1=O	i	x	-49	x	x	x	96*
O=C(N/N=C/c1ccc(OCc2ccccc2)cc1)c1ccc(O)cc1	+	x	2.6	-1.3	23%	x	2.2
O=C(CCc1ccc(O)cc1)c1c(O)cc(O)cc1O	+	3.7	6.5	0.9	x	0.66	0.1
O=C(O)C1C2CC2CN1C(=O)c1ccc(Cl)cc1Cl (stereo not given)	i	1.6	0.8	0.1	1%	0.68	1.8
Cc1sc2nc(COC(=O)c3ccc(O)cc3)[nH]c(=O)c2c1C	i	2.0	-2.2	-10	0%	0.67	3.7
O=c1ccn(Cc2ccc(F)cc2)c2ccnc(C(F)(F)F)c12	x	5.0	3.5	x	x	0.65	-0.6
Cc1ccc(NC(=O)C2CCN(S(=O)(=O)c3ccc(N4CCCC4=O)cc3)CC2)cc1Cl	i	x	-2.9	1.0	x	x	-2.9
CC(Sc1ncnc2ccccc12)C(=O)Nc1ccc2c(c1)OCCO2 (stereo not given)	x	0.0	5.2	x	x	0.67	2.3
O=C(/C=C/c1cnc2ccccc2n1)NC12CC3CC(CC(C3)C1)C2	x	4.6	1.9	x	5%	0.69	1.5
CCn1c(CCNS(=O)(=O)c2ccccc2Br)nnc1SC	i	3.4	-0.8	-2.1	x	0.69	2.0
COCCn1c(-c2ccco2)csc1=Nc1cccnc1	i	3.1	-3.7	9.2	15%	0.75	-6.7
O=C(NCCc1ccco1)C(=O)NCC1OCCCN1S(=O)(=O)c1cc(F)ccc1F (stereo not given)	i	4.1	-1.5	3.4	-1%	0.7	-1.4
CC(=O)Nc1ccc(C(=O)Nc2cc(S(=O)(=O)N3CCOCC3)ccc2N2CCOCC2)cc1	i	1.0	x	1.5	x	0.71	-0.9
O=C(c1noc2c1CSc1ccccc1-2)N1CCN(c2ccc(Cl)cc2)CC1	i	1.3	4.0	-2.7	x	0.72	-3.0
CC(=O)Nc1ccc(S(=O)(=O)N2CCCC3CCCCC32)cc1 (stereo not given)	i	2.9	x	2.5	x	0.65	-1.9
O=C(CSc1nc2ccccc2[nH]1)Nc1ccccc1N1CCOCC1	x	2.4	-0.6	x	4%	0.66	4.2
CC(C)n1ncc(N2CCOCC2)c(Cl)c1=O	i	5.5	1.3	-3.5	-2%	0.66	-1.3
Cc1ccc(NS(=O)(=O)c2ccc(NC(=O)c3cccs3)cc2)c(C)c1	i	6.5	5.1	-1.7	-7%	0.71	-1.2
O=C(NC(=S)Nc1ncccn1)c1ccc(Cl)cc1Cl	i	2.0	0.1	-0.8	-4%	0.66	1.2

Some of the compounds tested; rates above refer to the full screens.
